NS1 function inh – blocks influenza NS1 protein function. S. cerevisiae slowed by influenza A NS1, growth recovery by OD600. Potency, µM (top dose mostly 46.1 µM), without a hit: top-dose activity, positive = more growth. 0.4% of 270,000 active. AID 2326; active means well fitted rising curve with a large enough effect; inconclusive means small, poorly fitted or top-dose-only effect; inactive means no such curve, though single readings can be large or run the other way; also: nearly all actives have a fitted effect of over 50% in size
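In this qHTS, NS1 from influenza A is expressed in budding yeast, where it slows growth. Cells are switched from glucose to 2% galactose medium (pH 6.0, -URA), treated with compound, and growth recovery is read at OD600.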
Cruzain inh Det – cruzain (T. cruzi) inhibition with detergent | 0.43% of 200,000 active | purified cruzain, Z-FR-AMC fluorescence, 0.01% Triton | Potency, µM, without a hit: max response, negative = inhibition, actives largely listed as inhibitors;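 also: plate controls were neutral wells for no effect and buffer without enzyme for full effect; nearly all actives have a fitted effect of over 40% in size; top concentration of the series not given in the record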
Target sequence (P25779 123-467 limits assumed): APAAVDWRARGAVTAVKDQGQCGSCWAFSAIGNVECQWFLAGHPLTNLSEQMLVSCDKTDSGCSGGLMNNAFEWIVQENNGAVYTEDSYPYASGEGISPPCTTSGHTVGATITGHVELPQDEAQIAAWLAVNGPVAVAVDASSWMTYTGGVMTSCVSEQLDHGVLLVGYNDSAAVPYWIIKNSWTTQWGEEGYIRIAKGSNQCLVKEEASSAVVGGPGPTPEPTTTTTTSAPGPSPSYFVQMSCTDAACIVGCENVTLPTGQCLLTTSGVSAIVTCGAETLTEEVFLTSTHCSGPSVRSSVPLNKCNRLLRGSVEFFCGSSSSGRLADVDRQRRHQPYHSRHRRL
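Cruzain (1.5 nM) preincubated 15 min at RT with compound in 100 mM sodium acetate pH 5.5, 5 mM DTT, 0.01% Triton X-100. Reaction started with 2 uM Z-FR-AMC; AMC fluorescence (ex 360/em 450 nm) change over 60 s gave rate.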
LASV entry inh – inhibitors of Lassa virus binding or cell entry | Lassa virus pseudotype entry inhibition, cell reporter; control for the full effect not named in the record | Potency, µM (series often up to 37.9 µM), without a hit: top-dose activity change, negative = inhibition, usual class: inhibitors | 1.2% of 300,000 active; active means well fitted inhibition curve with a large enough effect; inconclusive means small, poorly fitted or top-dose-only effect, or effect the other way; inactive means flat fitted curve, though single readings scatter; tested in HEK293 cells; also: % is scaled to controls: 0 for no effect and ±100 for the full control effect; nearly all actives have a fitted effect of over 50% in size; luciferase read-out
MARV entry inh – inhibitors of Marburg virus binding or cell entry; Marburg virus pseudotyped entry inhibition, cell reporter; control for the full effect not named in the record; about a third of the inactives were read at about 46 µM; AID 540276; 1.8% of 300,000 active; Potency, µM (doses to about 37.8 µM), inactives show at the top dose activity change, negative = inhibition, actives largely listed as inhibitors; active = well fitted inhibition curve with a large enough effect; inconclusive = small, poorly fitted or top-dose-only effect, or effect the other way; inactive = flat fitted curve, though single readings scatter; tested in HEK293 cells; about a fifth of its hits are not listed in these tables; also: % is scaled to controls: 0 for no effect and ±100 for the full control effect; luciferase read-out
SARS PLP yeast – SARS-CoV PLP inhibition in yeast; S. cerevisiae expressing SARS-CoV PLpro, growth rescue; control for the full effect not named in the record; Potency, µM (series often up to 32.9 µM), without a hit: at the top dose activity, positive = growth rescue; 0.19% of 330,000 active; AID 485353; active means well fitted rising curve with a large enough effect; inconclusive means small, poorly fitted or top-dose-only effect; inactive means no such curve, though single readings can be large or run the other way; also: 0% is about no effect; nearly all actives have a fitted effect of over 55% in size; growth read by luminescence after 48 h
StopGo reporter – FMDV 2A StopGo reporter, luciferase signal. human cells with a luciferase reporter of 2A StopGo recoding; control for the full effect not named in the record. Potency, µM (titrated, usually from 57.9 µM), for the others: top-dose signal change, negative = less light. 1.2% of 410,000 active; active = well fitted falling curve with a large enough effect; inconclusive = small, poorly fitted or top-dose-only effect; inactive = no such curve, though single readings can be large or run the other way; tested in HEK293T cells; also: % is scaled to controls: 0 for no effect and ±100 for the full control effect; nearly all actives have a fitted effect of over 45% in size; luciferase light after 4 h
Cruzain inh noDet – inhibitors of Trypanosoma cruzi cruzain without detergent; purified cruzain, Z-FR-AMC fluorescence, no detergent; Potency, µM, without a hit: max response, negative = inhibition, usual class: inhibitors; 2.3% of 200,000 active; P25779; AID 1476;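 also: plate controls were enzyme without inhibitor for no effect and buffer without enzyme for full effect; nearly all actives have a fitted effect of over 40% in size; top concentration of the series not given in the record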
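Detergent-free condition (0.00005% Triton X-100) in acetate buffer pH 5.5 with DTT. 1.5 nM enzyme and compound were pre-mixed 15 min, then 2 uM Z-FR-AMC substrate added; reaction progress from fluorescence change between first and third reads (60 s).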
RE007 growth inh – less growth of the S. pombe RE007 Vpr strain | S. pombe RE007 Vpr strain, BacTiter-Glo ATP luminescence, 24 h; control for the full effect not named in the record | Potency, µM (top dose mostly 92.2 µM), for the others: at the highest dose activity change, negative = less growth | 0.21% of 360,000 active | AID 651644; active = well fitted falling curve with a large enough effect; inconclusive = small, poorly fitted or top-dose-only effect; inactive = no such curve, though single readings can be large or run the other way;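 also: % is scaled to controls: 0 for no effect and ±100 for the full control effect; nearly all actives have a fitted effect of over 50% in size; the assay follows cell death caused by Vpr and the record does not say whether a fall means rescue or toxicity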
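Fission yeast RE007 carrying one integrated HIV-1 vpr copy, seeded at OD 0.01 in PMG+AL medium with 23 nL pinned compound. Grown 24 h at 30 degrees; viability read by BacTiter-Glo luminescence after 5 min.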
Starred values were filed as active, the others as inactive; u = inconclusive; x = not tested or not shown; & = joins results of further samples; [ ] = remark or other dose. Unless noted, calls follow the shape of the dose curve; as a rule, active = well fitted curve in the direction sought with a large enough effect; inconclusive = small, poorly fitted or top-dose-only effect, or another doubt; inactive = no such curve, though single readings can be large; an effect the other way counts as inactive or inconclusive. Potency is read from the fitted curve at half-maximal effect.

SMILES	NS1 function inh	Cruzain inh Det	LASV entry inh	MARV entry inh	SARS PLP yeast	StopGo reporter	Cruzain inh noDet	RE007 growth inh
COc1ccc(C2C(=O)N(C3CCCCC3)CC(=O)N2Cc2ccco2)cc1 (stereo not given)	2%	-13%	u	18%	4%	-18%	-11%	2%
Cc1nn2c(N3CCN(C)CC3)cc(C(C)(C)C)nc2c1-c1ccccc1	-1%	x	u	10µM*	0%	u	x	0%
CCOC(=O)C1(CC2CC2)CCN(S(=O)(=O)/C=C/c2ccccc2)CC1	-5%	x	-9%[46.1 µM]	u	-2%	14%	x	-7%
COc1ccc(NC(=O)CCn2cc(C)c3ccccc32)cc1	-5%	x	u	-10%	-3%	60%[activator]	x	5%
CCC(CC)=NNC(=O)c1ccccc1OCc1ccc(F)cc1	18%	0.4%	u	0%	-8%	-21%	0%	9%
COC(=O)c1cc2sccc2n1CC(=O)Nc1cc(Cl)ccc1OC	x	-8.0%	x	-13%[46.1 µM]	x	u	-9%	x
O=C(c1ccco1)N1CCN(C(=O)C2CCCN(S(=O)(=O)c3cccc4nsnc34)C2)CC1 (stereo not given)	2%	-3.0%	22%	-24%	6%	0%	-4%	7%
O=C(NCC1CCCO1)c1cc2cc(F)ccc2[nH]1 (stereo not given)	6%	x	x	x	0%	50%[activator]	x	-9%
Cc1cc(C)n(S(=O)(=O)c2cc(C(=O)O)c(Cl)cc2Cl)n1	u	-8.4%	-10%	-2%	10%	x	-5%	4%
COc1ccccc1CNC(=O)c1cc(C)nc2ccccc12	-32%	x	-10%	3%[46.1 µM]	-1%	-10%	x	-5%
CCOC(=O)c1ccc(N2C(=O)C(CC(=O)NC)N(CCc3ccc(OC)c(OC)c3)C2=S)cc1 (stereo not given)	-3%	x	-1%[46.1 µM]	u	-5%	-12%	x	-9%
COc1ccc(C)cc1NC(=O)NC(C)c1ccc2c(c1)OCO2 (stereo not given)	-4%	x	x	x	-1%	22%	x	-9%
CCc1ccc(NC(=O)CSc2nc(NS(=O)(=O)c3ccccc3)cc(=O)[nH]2)cc1	8%	x	u	3.2µM*	1%	-2%	x	-3%
COc1ccc(C(=O)N2C(=O)c3ccc(N)cc3C2=O)cc1	-1%	x	8%	-18%[46.1 µM]	-3%	54%[activator]	x	19%
Cc1ccc(Nc2cc(-n3nc(C)cc3C)ncn2)c(C)c1	-16%	-8.5%	-4%	5%	-1%	3%	-10%	9%
CC(C)NC(=O)c1cc(-c2ccc(Br)cc2)on1	-1%	1.8%	u	u	2%	65%[activator]	-12%	-11%
O=C(Nc1ccc(C(F)(F)F)cc1Cl)c1ccc(Cn2cc(Br)cn2)o1	-84%	-9.3%	2%	-2%	x	x	20%	-1%
COc1ccc(OC)c(NC(=O)c2cccc(N3C(=O)C4C5C=CC(C6CC56)C4C3=O)c2)c1 (stereo not given)	-9%	x	x	x	3%	25µM*	x	-6%
CCN(CC)C(=O)c1csc(Nc2cccc3ccccc23)n1	-24%	x	-5%[46.1 µM]	u	-1%	2%	x	u
CNCC(=O)Nc1ccc(OC(F)(F)F)cc1	x	x	6%	-3%[46.1 µM]	-3%	-4%	x	-14%
CCOc1cc(C2c3c(oc4ccccc4c3=O)C(=O)N2Cc2ccc3c(c2)OCO3)ccc1O (stereo not given)	x	-1.1%	-7%[46.1 µM]	5%[46.1 µM]	x	72%[activator]	2%	x
Cc1nn(Cc2ccccc2)c(C)c1NC(=O)CCCn1nc([N+](=O)[O-])cc1C	x	x	-4%[46.1 µM]	-15%[46.1 µM]	-7%	-10%	x	u
CCc1ccc(-c2cc(C(=O)NN3CCOCC3)c3ccccc3n2)s1	-10%	x	10%	3%[46.1 µM]	-1%	29%	x	-9%
COc1ccccc1C(=O)Nc1ccc(C(=O)N2CCCC2)cc1	-5%	3.0%	6%	-12%	-7%	69%[activator]	-7%	2%
COc1ccc(C(C(=O)NC2CCCC2)N(Cc2cccnc2)C(=O)c2snc(C(N)=O)c2N)cc1OC (stereo not given)	-2%	x	15%[46.1 µM]	-24%[46.1 µM]	1%	1%	x	12%
COC(=O)c1c(C(=O)OC)c2cc(C(=O)c3ccccc3)ccn2c1Cl	-9%	-12%	-30%	u	-2%	u	u	-1%
CC(=O)c1cnn(-c2ccc(Cl)cc2)c1C	2%	x	-6%[46.1 µM]	u	1%	35%[activator]	x	-5%
Cc1cc([N+](=O)[O-])ccc1NC(=O)/C=C/c1cccs1	0%	-4.3%	23%	18%	18%	15%	-20%	-8%
Cn1c(CCN2CCN(c3ccccn3)CC2)nc2cc(NC(=O)COc3ccc([N+](=O)[O-])cc3)ccc21	9%	x	x	x	0%	-11%	x	11%
CCN(CC)S(=O)(=O)c1ccc(C(=O)NCC(=O)NCCCc2ccccc2)cc1	u	x	u	u	1%	27%	x	-12%
COc1ccc(C(=O)O)cc1Nc1nc2ccc(C)cc2n2cnnc12	x	-1.8%	x	23%[46.1 µM]	x	23%	0%	x
COc1ccccc1N1CCN(C(=O)Cn2c(=O)oc3cc(S(=O)(=O)N4CCCC4)ccc32)CC1	-19%	x	x	x	-3%	u	x	6%
Cc1ccc2sc(N3CCN(C(=O)C4COc5ccccc5O4)CC3)nc2c1C (stereo not given)	x	1.5%	5%[46.1 µM]	x	x	-19%	18%	x
C#CCN1Cc2ccccc2Oc2cc(Br)ccc2S1(=O)=O	x	x	u	x	-47%	0%	x	-13%
CCOC(=O)N1CCN(S(=O)(=O)c2ccc3c(c2)oc(=O)n3C)CC1	6%	1.0%	-2%	-4%&-4%	-3%	-24%	6%	-11%
CCc1ccccc1NC(=O)C(C#N)Cc1cccnc1 (stereo not given)	-2%	-0.8%	12%	u	4%	6%	-15%	13%
CCOC(=O)NC(Nc1ccc(C)cn1)(C(F)(F)F)C(F)(F)F	8%	2.0%	12%	-1%	3%	1%	-2%	2%
Cc1nn(-c2ccccn2)c2c1C(c1ccccn1)C1=C(CCCC1=O)N2 (stereo not given)	-3%	-3.8%	x	x	12%	x	-3%	x
COc1ccc(C=NNC(=S)Nc2ccc(F)cc2)cc1OC	x	x	u	u	x	-6%	x	-6%
CCc1ccc(-n2nc(C)c3c(C)cc(=O)n(CC(=O)N(CC)Cc4ccccc4)c32)cc1	x	-0.3%	-9%[46.1 µM]	x	x	0%	9%	x
CC1(C)CCCC2=C1CC1C(=O)N(O)C(=O)C1C2 (stereo not given)	-8%	5.2%	u	-11%	7%	7%	3%	8%
COCCNC(=O)Nc1ccc2c(c1)N(C)C(=O)CS2	7%	0.0%	1%	-1%	2%	x	-2%	0%
CC(=O)NCCCNS(=O)(=O)c1ccc(C)cc1	4%	x	13%	1%	0%	17%	x	3%
Cc1cc(C(=O)N/N=C/C=C/c2ccc3c(c2)OCO3)n[nH]1	-4%	-14%	0%	34%	-2%	6%	-9%	4%
O=C(COC(=O)/C=C/c1cccs1)Nc1nc(-c2cccc(Br)c2)cs1	-3%	x	u	-18%[46.1 µM]	0%	4%	x	6%
O=C(Cc1c(Cl)cccc1Cl)N1CCN(Cc2ccccc2)CC1	4%	x	u	-3%[46.1 µM]	2%	0%	x	-2%
O=C(CSc1nnc(-c2ccccc2F)n1C1CCCCC1)N1CCCC1	1%	-0.7%	u	-12%	9%	9%	5%	6%
CN(C)/C=C(\C#N)C(N)=C(C#N)C#N	8%	x	-18%	u	2%	-18%	x	4%
COc1c(O)cccc1-c1nnn(CCC(=O)OCC(=O)c2ccccc2)n1	-55%	3.2%	4%	0%	4%	7%	0%	11%
O=C(COC(=O)/C=C/c1ccccc1F)Nc1nnc(-c2ccccc2)o1	x	x	-3%	-2%[46.1 µM]	-1%	10%	x	-6%
O=C(CCCOc1ccccc1)Nc1cccc(C(=O)O)c1	5%	3.9%	-7%	6%	10%	32%[activator]	0%	5%
Cc1cccc(C(=O)Nc2ccc(C)c(OC(=O)c3cccc(C)c3)c2)c1	-45%	-2.5%	x	4%	-10%	x	u	x
CC1Cc2ccccc2N1S(=O)(=O)c1nnc(NC(=O)c2ccccc2)s1 (stereo not given)	x	-1.1%	0%[46.1 µM]	x	x	-14%	-1%	x
CCCCC(=O)Nc1cccc(NC(=O)c2ccc(Br)cc2)c1	-4%	13%	1%	-10%	-2%	27%	1%	3%
Cc1c(NC(=O)C(C)OC(=O)COc2cccc3c2OC(C)(C)C3)c(=O)n(-c2ccccc2)n1C (stereo not given)	-7%	-1.4%	u	0%	8%	8%	14%	-8%
CC(C)(C)C1CCC(=O)N(CCOc2ccccc2)CC1 (stereo not given)	-27%	x	x	x	-5%	54%[activator]	x	14%
COc1ccc2c(=O)c3c(=O)n(Cc4ccco4)c(-c4ccccc4)nc3oc2c1	-65%	-5.0%	-19%	28%	-1%	-18%	1%	10%
Cc1onc(-c2ccccc2Cl)c1C(=O)NCC(=O)O	2%	0.3%	6%	6%	1%	8%	0%	6%
O=[N+]([O-])c1ccc2nc(SCc3cn4cc(Cl)ccc4n3)[nH]c2c1	21%	-12%	u	-4%	u	-18%	u	-15%
Cc1ccc(CN2CCC(C(=O)Nc3ccc(Oc4cccnc4)cc3)CC2)cc1	-6%	x	u	u	-3%	u	x	-22%
Next part
SMILES	NS1 function inh	Cruzain inh Det	LASV entry inh	MARV entry inh	SARS PLP yeast	StopGo reporter	Cruzain inh noDet	RE007 growth inh
O=C1N(Cc2ccccc2)CC2(Br)COCOC12O (stereo not given)	x	x	u	-33%	x	-29%	x	-27%
CCCCOc1ccc(C(=O)N2CCN(c3ncccn3)CC2)cc1	-5%	x	x	x	-3%	-7%	x	5%
Cc1nc(NC(=O)CSc2nccn2C)sc1C(=O)N(C)C	3%	x	12%	5%	1%	4%	x	-11%
COc1cc(C(=O)Oc2ccccc2N)cc(OC)c1OC	-113%	-5.3%	2%	-2%	-9%	-5%	9%	u

Nothing new here: entries from further up.
SMILES	NS1 function inh	Cruzain inh Det	LASV entry inh	MARV entry inh	SARS PLP yeast	StopGo reporter	Cruzain inh noDet	RE007 growth inh
Cc1nc(NC(=O)CSc2nccn2C)sc1C(=O)N(C)C	3%	x	12%	5%	1%	4%	x	-11%
COc1cc(C(=O)Oc2ccccc2N)cc(OC)c1OC	-113%	-5.3%	2%	-2%	-9%	-5%	9%	u

Source: PubChem (National Center for Advancing Translational Sciences (NCATS))
